TRPML1 ag – human mucolipin-1 channel agonism | Q9GZU1 | TRPML1-expressing cells, Ca2+ dye fluorescence, FDSS; host cell line not named in the record; reference of the full effect not given here | activation, % (test concentration not listed) | 410,000 tested, 0.12% active; in the data active = activation above about 50%; inconclusive = about 30% to 50%; inactive = below about 30%; also: 0% is about no effect; the text of the record puts the active cut at 80%
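Calcium fluorescence on an FDSS kinetic reader gave the read-out. Tet-induced TRPML1-DL cells were plated overnight, dye-loaded (Ca8 with quencher, 45-90 min, room temperature, dark), then read 110 s after compound addition, and again 110 s after 4uM final 54-4 (EC80).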
D2 PAM – potentiates the human D2 dopamine receptor allosterically. potentiation, % (test concentration not listed). AID 624464. DiscoveRx D2 beta-arrestin cells, luminescence, 90 min; 100% = 57 uM dopamine signal. 360,000 tested, 0.23% active; active = potentiation of 50% or more; inconclusive = 30% to 50%; inactive = 30% or less;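 also: compound concentration not given in the record; tested on top of an EC20 dose of dopamine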
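PathHunter beta-arrestin assay in DiscoveRx D2 cells. Compounds were added with an EC20 of dopamine (50 nM final) for 90 min at 37 deg C. Luminescence was read 1 h after detection reagent, with 57 uM dopamine as the EC100 control.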
CtBP-E1A blk – inhibitors of CtBP/E1A interaction; AlphaScreen GST-E1A/His-CtBP binding, 1536-well; active compounds read low; control for the full effect not named in the record; activity change, % (no concentration beside the values); 340,000 tested, 0.49% active; in the data active means activity change below about -65%; inconclusive means about -30% to -65%; inactive means above about -30%; also: % is scaled to controls: 0 for no effect and ±100 for the full control effect
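AlphaScreen with 125 nM GST-E1A and 125 nM His-CtBP (5X stocks) in Tris pH 8.0, 300 mM NaCl, BSA, Tween 20, TCEP. Compounds preincubated 2 h at 37 deg C, then glutathione donor/nickel acceptor beads added for 1 h at 37 deg C in dark.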
Six1-Eya2 blk – blocks human Six1 binding to Eya2; Q15475+O00167; AlphaScreen GST-Six1/His-Eya2 binding, biochemical; active compounds read low; control for the full effect not named in the record; activity change, % (concentration not given with the values); 360,000 tested, 0.56% active; AID 651725; in the data active = activity change below about -65%; inconclusive = about -30% to -65%; inactive = above about -30%; also: % is scaled to controls: 0 for no effect and ±100 for the full control effect
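Compounds are tested against tagged Six1 and Eya2 proteins bridged by glutathione donor and nickel acceptor beads; after a one-hour incubation at 37 °C without light, AlphaScreen emission is recorded.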
TRPML1 inh – inhibitors of human TRPML1 channel; Q9GZU1; TRPML1-inducible cells, Ca2+ dye fluorescence, FDSS; active compounds read low; inhibition of EC80 agonist-evoked calcium signal; activity change, negative = inhibition, % (concentration not given with the values); 390,000 tested, 0.02% active; AID 624415; in the data active means activity change below about -50%; inconclusive means about -30% to -50%; inactive means above about -30%;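 also: stimulus is agonist 54-4 at its EC80 concentration; % is scaled to controls: 0 for no effect and ±100 for the full control effect; the text of the record puts the active cut at -80%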
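Calcium fluorescence in TRPML1-DL cells induced overnight with Tet: a 110 s read after compound pin addition, then a 110 s antagonist read after challenge with 54-4 at 4 uM final (EC80).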
TRPV1 PAM – potentiators of human vanilloid receptor 1 (TRPV1); Q8NER1; potentiation, % at 8.33 µM; TRPV1-expressing cells, Fluo-8 calcium influx, capsaicin EC20 potentiation; host cell line not named in the record; control for the full effect not named in the record; 320,000 tested, 0.02% active; active means potentiation above 80%; inconclusive means 30% to 80%; inactive means below 30%; also: 0% is about no effect
Target sequence (Q8NER1 whole entry, looked up): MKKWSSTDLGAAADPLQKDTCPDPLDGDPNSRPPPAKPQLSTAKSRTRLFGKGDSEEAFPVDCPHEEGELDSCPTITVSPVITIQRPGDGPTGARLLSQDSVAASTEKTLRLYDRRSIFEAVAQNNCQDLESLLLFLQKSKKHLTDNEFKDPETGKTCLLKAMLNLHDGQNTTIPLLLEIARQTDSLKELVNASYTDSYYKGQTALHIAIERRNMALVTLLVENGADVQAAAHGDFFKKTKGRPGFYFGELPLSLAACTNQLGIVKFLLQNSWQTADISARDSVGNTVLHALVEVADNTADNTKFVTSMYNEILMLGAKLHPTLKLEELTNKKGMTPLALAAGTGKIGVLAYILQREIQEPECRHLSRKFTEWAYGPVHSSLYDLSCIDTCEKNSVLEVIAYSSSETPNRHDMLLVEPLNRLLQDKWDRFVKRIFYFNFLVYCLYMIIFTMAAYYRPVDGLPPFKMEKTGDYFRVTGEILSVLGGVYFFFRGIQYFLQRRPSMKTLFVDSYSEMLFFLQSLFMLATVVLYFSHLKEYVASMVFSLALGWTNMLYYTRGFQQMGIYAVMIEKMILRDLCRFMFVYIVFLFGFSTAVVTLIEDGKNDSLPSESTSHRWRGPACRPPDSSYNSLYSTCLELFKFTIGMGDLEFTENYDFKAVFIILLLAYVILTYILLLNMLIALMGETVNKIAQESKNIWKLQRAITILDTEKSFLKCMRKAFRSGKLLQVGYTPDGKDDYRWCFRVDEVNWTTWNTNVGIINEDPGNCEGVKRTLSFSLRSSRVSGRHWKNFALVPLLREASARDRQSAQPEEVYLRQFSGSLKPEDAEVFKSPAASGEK
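Cells expressing TRPV1 were dye-loaded with Fluo-8 and read kinetically: 10 s baseline, 3 min after compound (agonist portion), then 2 min after EC20 capsaicin (allosteric enhancer portion). Calcium-bound dye fluorescence at 480/520 nm.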
Starred values were filed as active, the others as inactive; ? = inconclusive; nt = no result given.

1. O=C(CC(Nc1ccccc1)c1ccccc1)C1CC1 (configuration not stated)
2. CC(=O)n1cc([C@@H]2C=C(C(=O)N3CCN(Cc4ccccc4)CC3)O[C@H](OCc3ccc(CO)cc3)C2)c2ccccc21
3. C[C@H](CO)N1C[C@H](C)[C@@H](CN(C)C(=O)Nc2ccc3c(c2)OCO3)Oc2c(NS(=O)(=O)c3ccccc3)cccc2C1=O
4. CCCC(=O)Nc1c(C)n[nH]c1C
5. O=C(N/N=C/c1ccc(N2CCOCC2)cc1)c1ccncc1
6. COc1cccc(NC(=O)Nc2cccc(C)n2)c1
7. COc1ccc(Cc2nnc(NC(=O)c3c(-c4ccccc4)noc3C)s2)cc1
8. CC(=O)N1CCN(c2ccc(NCc3ccccc3)cc2)CC1
compound no.	1	2	3	4	5	6	7	8
TRPML1 ag	-0.1	-0.5	-0.1	1.5	0.8	1.5	0.1	-1.0
D2 PAM	-9	-10	-6	9	-14	-17	-2	10
CtBP-E1A blk	0	-15	-1	4	17	-5	-2	-3
Six1-Eya2 blk	1	-14	1	-4	-6	-4	-9	-13
TRPML1 inh	19	14	8	-11	16	18	-7	-8
TRPV1 PAM	-15	5	nt	-1	-7	0	10	?

9. O=C(Nc1nnc([C@@H]2C[C@H](O)[C@@H](CO)O2)s1)Nc1cccc2ccccc12
10. CCN(CC(=O)Nc1ccc(S(=O)(=O)N2CCCCC2)cc1)Cc1ccccc1
11. CCCCNc1c(-c2ccc(-c3ccc(C(C)=O)cc3)c(OC)c2)nc2cnccn12
12. CCN=C1SC(C(=O)Nc2cc(Cl)cc(Cl)c2)CC(=O)N1CC (configuration not stated)
13. Cc1ccc(CCNC(=O)C2CCN(S(=O)(=O)N3CCCCC3)CC2)cc1
14. CCn1c(N2CCN(S(=O)(=O)c3ccccc3C(F)(F)F)CC2)nc2ccccc21
15. Cc1csc(NC(=O)C2CCCCN2S(=O)(=O)c2ccccc2)n1 (configuration not stated)
16. Cc1ccc(C(=O)NC(=S)NCCCN2CCOCC2)cc1
compound no.	9	10	11	12	13	14	15	16
TRPML1 ag	-0.5	2.0	-0.3	-1.3	0.0	2.5	-0.5	-0.3
D2 PAM	10	-10	0	-4	-3	2	-20	-9
CtBP-E1A blk	-21	0	13	16	2	6	4	2
Six1-Eya2 blk	5	1	28	3	8	6	5	1
TRPML1 inh	nt	13	-8	-10	20	-3	8	-18
TRPV1 PAM	nt	10	-6	3	-4	18	-9	-18

17. COc1cc(-n2c(C)nc3cccnc32)c(Cl)cc1C(=O)O
18. Nc1nc(-c2ccco2)nn1C(=O)c1ccc(F)cc1
19. COc1cccc(CN2CC(C(=O)NCc3ncc(C)[nH]3)CCC2=O)c1 (configuration not stated)
20. O=C(CCCc1nc(-c2ccc(Cl)cc2)no1)NC1CCCCC1
21. CSc1ncc2c(=O)[nH]c(-c3ccccc3)nc2n1
22. CSc1cccc(NC(=S)N2CCC(N(C)C3CCCC3)CC2)c1
23. CC(O)c1nc2ccccc2n1Cc1ccccc1 (configuration not stated)
24. CCn1c(Cc2ccccc2)nnc1SCC(=O)Nc1ccccc1
compound no.	17	18	19	20	21	22	23	24
TRPML1 ag	0.6	0.1	0.0	-0.4	-0.3	0.4	-0.1	0.1
D2 PAM	-5	-1	10	-3	-2	-9	-24	-6
CtBP-E1A blk	12	1	-2	0	1	30	nt	-1
Six1-Eya2 blk	5	1	-2	5	3	7	-8	1
TRPML1 inh	1	0	-10	27	-4	1	-11	-2
TRPV1 PAM	10	24	0	-22	6	?	11	-4

25. CC(C)(C)c1ccc(C(=O)OC/C(O)=C(\C#N)c2nc3ccccc3s2)cc1
26. O=C(COC(=O)CCC(=O)c1ccc(F)cc1)Nc1nnc(-c2ccccc2)o1
27. COCC(C)NC(=O)C(C)N1c2cccc3cccc(c23)S1(=O)=O (configuration not stated)
28. CC(C)(C)N=C1NN=C(c2ccc(Cl)cc2)CS1
29. CN1CCN(c2nc3c(c(=O)[nH]c(=O)n3C)n2Cc2ccc([N+](=O)[O-])cc2)CC1
30. COc1ccc(S(=O)(=O)N(C)C)cc1NC(=O)COC(=O)CC1CCCC1
31. O=C(Nc1ccccc1)Nc1ccc(Nc2ccccc2)cc1
32. C[C@H]1COc2cccc(N3CCSCC3)c2S(=O)(=O)N1
compound no.	25	26	27	28	29	30	31	32
TRPML1 ag	-1.0	0.3	-0.3	3.3	nt	0.7	-0.1	-0.5
D2 PAM	-2	-3	-2	-30	-8	-4	-14	nt
CtBP-E1A blk	-11	-28	12	nt	nt	0	nt	5
Six1-Eya2 blk	-6	-25	8	-2	-1	-6	0	11
TRPML1 inh	-2	-3	-2	3	nt	10	38	nt
TRPV1 PAM	2	-11	-5	-1	1	5	nt	nt

An excerpt of these results, bar-delimited.
nr | smiles | TRPML1 ag | D2 PAM | CtBP-E1A blk | Six1-Eya2 blk | TRPML1 inh | TRPV1 PAM
10 | CCN(CC(=O)Nc1ccc(S(=O)(=O)N2CCCCC2)cc1)Cc1ccccc1 | 2.0 | -10 | 0 | 1 | 13 | 10
11 | CCCCNc1c(-c2ccc(-c3ccc(C(C)=O)cc3)c(OC)c2)nc2cnccn12 | -0.3 | 0 | 13 | 28 | -8 | -6

Later entries:
33. O=C(CCl)Nc1ccc2c(c1)OCO2
34. CCN(CC)c1ccc(C(=O)O)cc1
35. O=C(NCc1ccccn1)c1cc2c(ccc3ccccc32)oc1=O
36. CCn1c(/C=C/c2ccccc2)nc2ccccc2c1=O
37. O=C(CN1C(=O)NC2(CCCCCC2)C1=O)c1ccc(F)cc1
38. CC1CCCC(NC(=O)COC(=O)CSc2ccc3ccccc3c2)C1C (configuration not stated)
39. O=C(NN1C(=O)/C(=C\c2cccnc2)SC1=S)c1ccco1
40. OCC1(Cc2ccccc2F)CCCN(CCc2ccccc2)C1 (configuration not stated)
compound no.	33	34	35	36	37	38	39	40
TRPML1 ag	0.0	0.3	0.3	2.4	0.2	2.3	0.8	-0.6
D2 PAM	-1	-5	-13	-1	6	0	9	-26
CtBP-E1A blk	7	nt	nt	-17	6	2	0	-5
Six1-Eya2 blk	5	12	-5	-2	3	9	-15	-13
TRPML1 inh	-11	-15	4	14	-8	15	12	4
TRPV1 PAM	4	2	2	-10	-2	-8	1	-6

41. O=C1C2C3C=CC(C3)C2S(=O)(=O)C2C3C=CC(C3)C12 (configuration not stated)
42. Cc1scc(C(=O)NNC(=S)NCc2ccccc2)c1C
43. COc1cccc(/C=C/C(=O)N2CCN(c3ccccn3)CC2)c1
44. CC1CN(c2sc(S(C)(=O)=O)nc2S(=O)(=O)c2ccc(Cl)cc2)CC(C)O1 (configuration not stated)
45. CCOc1ccc(CNC(=O)C2CCC(=O)N2C2CCCC2)cc1OC (configuration not stated)
46. CCCC(=O)Nc1ccc(NC(=O)c2ccccc2F)cn1
47. CCOC(=O)C1=C(COC(=O)c2ccc(Br)o2)NC(=O)NC1C (configuration not stated)
48. Oc1c(Cl)cc(Cl)cc1/C=N/NC(=S)NC1CC2C=CC1C2 (configuration not stated)
compound no.	41	42	43	44	45	46	47	48
TRPML1 ag	-0.2	3.8	-0.3	0.3	-0.4	0.4	-0.3	2.5
D2 PAM	-10	-18	-11	-5	-8	-4	-14	-15
CtBP-E1A blk	-11	6	-5	6	4	0	2	-82*
Six1-Eya2 blk	-2	-1	-4	6	-1	-3	3	?
TRPML1 inh	-16	4	10	-9	-6	15	-14	-23
TRPV1 PAM	nt	-9	-3	-8	4	0	-2	?

49. CC(=O)Nc1c(C)nn(-c2ccc([N+](=O)[O-])cc2)c1C
50. Cn1c(CC2C(=O)Nc3ccc(Br)cc32)nc2ccccc2c1=O (configuration not stated)
51. NC(=O)COC(=O)C1c2ccccc2Oc2ccccc21
52. Cc1cc(-c2ccc(C)c(S(=O)(=O)NCCCN3CCCCCC3)c2)on1
53. CCOc1ccc(N2C(=O)CC(SCC(=O)O)C2=O)cc1 (configuration not stated)
54. COC(=O)c1ccc(C)c(NC(=O)CCn2[nH]c(=O)ccc2=O)c1
55. Cn1c(=O)c2c(nc(-n3ccnc3)n2Cc2ccccc2)n(C)c1=O
56. CCCC(=O)Nc1cc2c3c(c1)CC(=O)N3CCC2
compound no.	49	50	51	52	53	54	55	56
TRPML1 ag	-0.5	-0.1	-0.5	-0.9	-0.5	1.1	0.1	-0.5
D2 PAM	-4	-53	-4	-38	-4	-2	-11	2
CtBP-E1A blk	6	0	2	-6	-16	-1	10	nt
Six1-Eya2 blk	0	?	4	-2	3	-5	1	3
TRPML1 inh	-11	3	55	?	-9	11	-5	11
TRPV1 PAM	-2	1	8	20	10	nt	nt	?

Four entries drawn at random from the list so far, as already listed:
53. CCOc1ccc(N2C(=O)CC(SCC(=O)O)C2=O)cc1 (configuration not stated)
54. COC(=O)c1ccc(C)c(NC(=O)CCn2[nH]c(=O)ccc2=O)c1
52. Cc1cc(-c2ccc(C)c(S(=O)(=O)NCCCN3CCCCCC3)c2)on1
49. CC(=O)Nc1c(C)nn(-c2ccc([N+](=O)[O-])cc2)c1C
compound no.	53	54	52	49
TRPML1 ag	-0.5	1.1	-0.9	-0.5
D2 PAM	-4	-2	-38	-4
CtBP-E1A blk	-16	-1	-6	6
Six1-Eya2 blk	3	-5	-2	0
TRPML1 inh	-9	11	?	-11
TRPV1 PAM	10	nt	20	-2

Following part.
57. C[C@@H]1CCC[C@@]2(O[C@@H](CCO)C[C@@H](O)[C@@H]2O)O1
58. Cc1ccc(S(=O)(=O)Nc2ccc(Br)cc2/C=N/n2cnnc2)cc1
59. CCC(=O)Oc1ccc(NC(=O)c2ccc(S(=O)(=O)N3CCCC3)cc2)cc1
60. COc1ccc(CN2C(=O)C(CC(=O)NCc3cccc4ccccc34)CC(C(=O)N(C)C)=C2C)cc1 (configuration not stated)
61. CC(C)C(NC(=O)C1CCCCC1)C(=O)Nc1ccncc1 (configuration not stated)
62. COc1cccc(C(C)NC(=O)C2CCCO2)c1 (configuration not stated)
63. O=C(COC(=O)c1ccc(NS(=O)(=O)c2cccs2)cc1O)NC1CCCCC1
64. CCC(C)(C)NC(=O)Cn1c(=O)oc2cc(S(=O)(=O)N3CC(C)CC(C)C3)ccc21 (configuration not stated)
compound no.	57	58	59	60	61	62	63	64
TRPML1 ag	-1.0	-0.1	0.0	-0.5	0.2	0.0	1.5	-0.6
D2 PAM	-3	5	-20	4	-9	-4	1	-2
CtBP-E1A blk	-5	-1	-1	14	-1	13	1	2
Six1-Eya2 blk	13	0	2	21	-4	5	4	2
TRPML1 inh	-3	-10	1	39	-15	1	15	?
TRPV1 PAM	nt	9	nt	nt	-11	-3	8	-9

65. COCCNC(=O)CN1c2ccccc2CC1C (configuration not stated)
66. COC(=O)CSc1nc(C(C)C)nc2ccccc12
67. COc1ccc([N+](=O)[O-])cc1NC(=O)c1ccccc1SC
68. CC(=O)Nc1ccc(OS(=O)(=O)c2ccc(C)cc2C)cc1
69. COc1ccccc1CNC(=O)CN1C(=O)NC2(CCCCCC2)C1=O
70. COc1cc[n+]([O-])cc1[N+](=O)[O-]
compound no.	65	66	67	68	69	70
TRPML1 ag	0.4	-0.6	0.2	0.2	-0.4	-0.4
D2 PAM	-8	-9	-20	0	-3	-2
CtBP-E1A blk	0	3	-9	3	-2	7
Six1-Eya2 blk	-5	10	-12	1	-2	10
TRPML1 inh	9	-14	3	24	12	-9
TRPV1 PAM	2	-4	-1	13	nt	nt

High-throughput results from PubChem.
